# D2 agonist – human D2 receptor agonism in beta-arrestin assay. P14416. DiscoveRx PathHunter D2 beta-arrestin, luminescence, 90 min; 100% = 57 uM dopamine signal. activation, % (no concentration beside the values). actives 0.084% (n = 360,000). AID 624465; in the data active = activation above about 40%; inconclusive = about 15% to 40%; inactive = below about 15%; note: compound concentration not given in the record; the text of the record calls up to 30% inactive
# Target sequence (P14416 whole entry, looked up): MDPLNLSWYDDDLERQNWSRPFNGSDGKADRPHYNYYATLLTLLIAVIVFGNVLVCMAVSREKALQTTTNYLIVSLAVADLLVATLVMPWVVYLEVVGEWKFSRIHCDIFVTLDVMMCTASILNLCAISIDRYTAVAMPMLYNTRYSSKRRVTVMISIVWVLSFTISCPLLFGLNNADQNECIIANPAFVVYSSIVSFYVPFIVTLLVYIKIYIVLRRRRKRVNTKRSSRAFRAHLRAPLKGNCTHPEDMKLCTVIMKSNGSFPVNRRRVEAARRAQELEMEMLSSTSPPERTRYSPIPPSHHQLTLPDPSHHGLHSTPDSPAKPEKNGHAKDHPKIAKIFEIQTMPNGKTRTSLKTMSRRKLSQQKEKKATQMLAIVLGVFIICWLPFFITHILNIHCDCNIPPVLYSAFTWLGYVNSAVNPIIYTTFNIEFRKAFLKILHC
#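 DiscoveRx PathHunter D2 beta-arrestin cells (2,100/well) attached overnight, then compound-stimulated 90 min at 37 C in HBSS/10 mM HEPES/0.1% Tween-20 buffer; beta-galactosidase complementation read by luminescence after 1 h at ambient temperature. Dopamine 57 uM final (EC100) as control.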
# CtBP-E1A blk – blocks the CtBP interaction with E1A; AlphaScreen GST-E1A/His-CtBP binding, 1536-well; stronger effect = lower value; control for the full effect not named in the record; activity change, % (concentration not given with the values); actives 0.49% (n = 340,000); AID 651724; in the data active means activity change below about -65%; inconclusive means about -30% to -65%; inactive means above about -30%; note: % is set by controls: 0 for no effect and ±100 for the full control effect
#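 Homogeneous bead-based format: GST-tagged E1A captured on glutathione donor beads, His-tagged CtBP on nickel acceptor beads; compounds precede bead addition by 2 h at 37 °C.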
# D2 PAM – human D2 receptor positive allosteric modulation. DiscoveRx D2 beta-arrestin cells, luminescence, 90 min; 100% = 57 uM dopamine signal. potentiation, % (concentration not given with the values). actives 0.23% (n = 360,000). AID 624464; active = potentiation of 50% or more; inconclusive = 30% to 50%; inactive = 30% or less;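 note: compound concentration not given in the record; tested on top of an EC20 dose of dopamine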
#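 PathHunter beta-arrestin assay in DiscoveRx D2 cells. Compounds were added with an EC20 of dopamine (50 nM final) for 90 min at 37 deg C. Luminescence was read 1 h after detection reagent, with 57 uM dopamine as the EC100 control.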
# gsp agonist – gsp mutant agonism; gsp mutant cells, cAMP HTRF, 30 min; control for the full effect not named in the record; Potency, µM (doses to about 76.9 µM), for inactives: at the highest dose activation (cAMP increase), hits mostly activators; actives 0.13% (n = 340,000); AID 624287; active = well fitted activation curve with a large enough effect; inconclusive = small, poorly fitted or top-dose-only effect, or another doubt; inactive = no such curve, though single readings can be large or run the other way; cell line not stated here;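 note: phosphodiesterase inhibitor Ro 20-1724 added with compounds to block cAMP breakdown; potency is the fitted concentration of half-maximal effect; nearly all actives have a fitted effect of over 60% in size; about a fifth of the inactives were tested at one dose only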
#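 Cells in DMEM/10% FBS with G418 were pretreated with compounds in DMSO plus […] (300 uM stock) for 30 min at 37C. cAMP was measured by HTRF (cAMP-d2 plus anti-cAMP antibody-K) after 30 min at room temperature.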
# gsp antag – antagonizes gsp, the McCune-Albright syndrome mutation | gsp-mutant cells, cAMP HTRF, 30 min; control for the full effect not named in the record | Potency, µM (series often up to 76.9 µM), without a hit: at the highest dose activity change, negative = inhibition, hits mostly inhibitors | actives 0.4% (n = 340,000) | AID 624288; active = falling curve of any shape with a large fitted effect; inconclusive = falling curve, mostly with a smaller effect; inactive = flat or rising curve; cell line not stated here;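 note: intracellular cAMP measured with PDE inhibitor Ro 20-1724 present during compound exposure; potency is the fitted concentration of half-maximal effect; % is set by controls: 0 for no effect and ±100 for the full control effect; nearly all actives have a fitted effect of over 65% in size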
#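 HTRF cAMP measurement after 30 min RT detection following 30 min, 37C compound treatment alongside […] (added as 300 uM solution) in G418-selected cells seeded at 2000/well and grown 16–24 h.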
# Six1-Eya2 blk – Six1/Eya2 interaction inhibition | activity change, % (no concentration beside the values) | AID 651725 | actives 0.56% (n = 360,000) | AlphaScreen GST-Six1/His-Eya2 binding, biochemical; stronger effect = lower value; control for the full effect not named in the record | Q15475+O00167; in the data active = activity change below about -65%; inconclusive = about -30% to -65%; inactive = above about -30%; note: % is set by controls: 0 for no effect and ±100 for the full control effect; compound concentration not given in the record
#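 Homogeneous AlphaScreen proximity assay pairing GST-Six1 with His-tagged Eya2 (added as 5X mix: 250 nM and 500 nM) in 50 mM Tris pH 8.0, 300 mM NaCl, 1 mM TCEP. Glutathione donor and nickel acceptor beads; 1 h, 37 °C, dark.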
# Active calls of the source: *; ? = inconclusive; · = no result given; [ ] = dose if it differs, or a comment.
SMILES,D2 agonist,CtBP-E1A blk,D2 PAM,gsp agonist,gsp antag,Six1-Eya2 blk
CCc1cccc(C)c1NC(=O)C1CCCN1C(=O)NCc1ccccc1 (stereo not drawn),-2.5,3,-9,17%[15.4 µM],-2%,2
Cc1ccc(Nc2nc(N)c([N+](=O)[O-])c(NCc3ccco3)n2)cc1C,-6.3,5,-5,-16%,12%,-23
CC1=NN(C(=O)c2c(Br)c(C)nn2C)C(O)(C(F)(F)F)C1 (stereo not drawn),-2.9,0,-15,5%,11%,2
CCOc1ccc2nc(N3CCC(C(=O)N4CCN(C(=O)c5ccco5)CC4)CC3)sc2c1,6.5,-6,-2,4%,-7%,-2
Fc1cccc(CSc2ncnc3c2ncn3C2CCCCO2)c1 (stereo not drawn),4.0,6,-4,-2%,-14%,13
CCOc1ccc(-c2[nH]ncc2Oc2cccc(OC)c2)c(O)c1,-4.5,-5,23,17%,?,-1
COc1ccc2o/c(=N\O)c(C(=O)Nc3ccccc3OC)cc2c1,5.1,0,1,-34%,-2%,9
COc1cc2c(cc1OC)C(c1ccsc1)CC(=O)N2 (stereo not drawn),2.2,6,17,14%,1%,2
O=C(c1cc(-c2ccc(O)cc2)on1)N1CCOCC1,5.6,10,4,-11%,-1%,-4
CCOC(=O)c1c(NC(=O)Nc2ccc(Cl)cc2)sc(C)c1C,0.4,6,-37,14%,1%,0
[O-]/C(=C(\C(=S)Nc1cccc2ccccc12)[n+]1ccccc1)c1cccs1,-0.4,-8,-7,-15%[15.4 µM],-13%,-19
O=C(Nc1ccc(F)cc1F)c1cccc(C(=O)Nc2ccc(F)cc2F)n1,-3.6,10,21,-10%,10%,3
COC(CNC(=O)c1cc(S(=O)(=O)N2CCc3ccccc32)ccc1F)OC,0.2,5,-8,10%,-8%,5
CCCc1cc(C(=O)NC(C)C2CCCO2)cs1 (stereo not drawn),-1.3,-1,3,-17%,-4%,5
O=C(c1ccccc1)N1CCSC1=S,0.0,15,4,-4%,0%,4
Cc1cc2nc(C3CCCCC3)c(Cc3cccc(F)c3)n2c(C)c1Br,-3.7,-9,0,·,·,-13
Cc1ccc2c(c1)c1c(n2CC(O)Cn2nc(C)c(Br)c2C)CCCC1 (stereo not drawn),-1.4,-5,0,8%,-22%,-16
COc1ccc(N2CCN(C(=S)Nc3ccccc3OC)CC2)cc1,2.6,-11,-3,3%[15.4 µM],6%,-27
CC(Oc1ccc(Br)cc1)C(=O)NCc1ccccn1 (stereo not drawn),2.2,-20,-7,12%,9%,-13
O=C(Nc1ccc(O)c(-c2nc3ccccc3s2)c1)C1=COCCO1,-7.0,-1,-22,28%,?,7
COc1ccc(CN(C)C(=O)c2ccc3c(=O)n4c(nc3c2)CCC4)cc1,-4.7,-5,-5,19%,7%,-8
Cc1ccc(CN(CC(=O)NCc2ccc3c(c2)OCO3)C(=O)c2csnn2)cc1,1.2,0,-4,-3%,-3%,-11
CCC(=O)Nc1nc2c(c(=O)[nH]1)CCCC2,-0.6,18,-5,22%,12%,33
Cc1cccc(-c2nc(CS(=O)CC(=O)NC3CCCC3)c(C)o2)c1 (stereo not drawn),-4.1,0,-2,-6%,10%,-1
COC(=O)CCC(=O)CN,-5.7,1,-4,·,2%,0
CCN(C(=O)Cn1cnc2ccccc2c1=O)C1CCS(=O)(=O)C1 (stereo not drawn),-2.3,0,8,2%[15.4 µM],11%,5
Cc1nnc(N2C(=O)c3cccc4cccc(c34)C2=O)s1,-0.3,-7,-7,26%,-9%,0
O=C(COC(=O)C1CC(O)CN1S(=O)(=O)c1ccc(Cl)cc1)c1ccccc1Cl (stereo not drawn),-5.7,-1,-21,1%,-2%,6
CC(=O)Nc1ccc(S(=O)(=O)N2CCC(c3nc4ccc(C)cc4[nH]3)CC2)cc1,3.0,-3,-2,5%,-16%,-2
Cc1ccc2cccc(NC(=S)NC(=O)c3ccccc3)c2n1,-2.6,-14,-13,1%,-7%,-16
O=C(NCc1ccccc1)c1cccc(S(=O)(=O)NCc2ccccc2)c1,-3.7,-9,-5,-38%[inhibitor],1%,3
O=C(CN1CCN(CC(=O)Nc2ccccc2F)CC1)Nc1cccc(F)c1,-1.8,4,-3,36%,14%,1
CCS(=O)(=O)N1CCC(C(=O)NCCCOC)CC1,4.5,9,0,-39%[inhibitor],0%,7
CCOc1ccc(NC2c3ccccc3C(=O)N2Cc2ccco2)cc1 (stereo not drawn),1.3,-24,-1,-62%[inhibitor],?,-2
Cc1ccc(NC(=O)Cn2cnc3cc([N+](=O)[O-])ccc3c2=O)cc1,3.0,-15,9,?,2%,10
COc1cc(OC)c(NS(=O)(=O)c2cc3[nH]c(=O)c(=O)[nH]c3cc2C)cc1Cl,6.7,·,3,-14%,4%,-9
Cc1ccc(S(=O)(=O)NCc2ccccc2)cc1C(=O)N1CC(C)CC(C)C1 (stereo not drawn),-5.1,21,-22,-10%,4%,-2
Cc1cnc(C(=O)Nc2nnc(C3CC3)s2)cn1,1.1,-3,-5,12%,12%,7
COc1ccc(Cl)cc1NC(=O)COC(=O)CCCN1C(=O)c2ccccc2C1=O,-2.8,10,2,4%,-4%,9
Cc1ccc(S(=O)(=O)N(C)CC(=O)NCCCc2ccccc2)cc1,5.4,9,-4,-36%[inhibitor],-16%,0
COc1ccc(CCNC(=O)[C@@H](NC(=O)N2CCn3c2nc2ccccc23)C(C)C)cc1OC,0.1,-10,-12,7%,-4%,-1
CCCc1ccc(C(=O)CCC(=O)NNC(=O)c2ccncc2)cc1,-0.1,7,-4,?,10%,8
CC(=O)c1ccc(N(C(=O)CNC(=O)c2ccco2)C(C(=O)NC2CCCC2)c2ccncc2)cc1 (stereo not drawn),-16,12,-7,12%[15.4 µM],·,4
COc1ccccc1C(=O)N1CCN(c2cccc(Cl)c2)CC1,0.2,5,19,-5%,-11%,-9
CCCCOc1ccc(C(=O)N/C(=C/C=C/c2ccccc2)C(=O)NCCCO)cc1,-2.1,2,-3,19%[15.4 µM],-2%,-2
Cc1nc2c(ccc3nc(NC(=O)Cc4cccc5ccccc45)sc32)s1,-3.8,-1,-6,-57%[inhibitor],8%,-6
CSc1ncccc1C(=O)NCc1ccccc1Cl,-0.4,13,0,-1%[15.4 µM],4%,7
COc1ccc(C(O)(C(C)C)C(CN2CCOCC2)c2ccccc2)cc1 (stereo not drawn),-1.7,0,-6,-38%[inhibitor],1%,4
COc1ccc(N/C=C/C(=C(C#N)C#N)N(C)C)cc1,2.6,2,4,-9%,1%,-7
O=C(c1ccc(Cl)cc1)c1oc2ccccc2c1CS(=O)c1ccc(Cl)cc1 (stereo not drawn),0.5,-4,-17,1%,10%,0
O=S(=O)(Nc1ccc(-c2ccc(N3CCOCC3)nn2)cc1)c1ccc(Cl)c(Cl)c1,-3.1,-4,-5,19%[15.4 µM],35µM*,-5
O=C(COC(=O)c1ccc2c(c1Cl)C(=O)c1ccccc1C2=O)NC1CCCCC1,11,?,?,-16%,-10%,-19
C/C(CC(C)(C)c1ccccc1)=N\NS(=O)(=O)c1ccccc1,-2.1,11,-36,-2%[15.4 µM],·,1
O=C(CSc1nnc(-c2cccnc2)o1)Nc1cccc(F)c1,-2.4,8,-3,-2%[15.4 µM],-9%,-6
COCc1cc(=O)n2[nH]c(C)cc2n1,-4.4,-1,1,-16%,2%,0
O=C1c2ccccc2S(=O)(=O)c2cc(C(=O)N3CCC(N4CCCC4)CC3)ccc21,1.3,-4,-10,-9%,7%,-5
O=C(CN1CCNC(=O)C1)NCCc1ccc(Cl)cc1Cl,-3.6,-9,-2,-12%,13%,-1
O=C(/C=C/c1cccc(Cl)c1)OCc1cn2cc(Cl)ccc2n1,-3.3,0,-10,-3%[15.4 µM],-3%,0
Cc1[nH]c2ccc(F)cc2c1CCNC(=O)C1CCCCC1C(=O)OCC(F)(F)F (stereo not drawn),-5.3,-4,-9,-2%[15.4 µM],-3%,-3
C[C@@H](NC(=O)c1ncn2c1c(=O)[nH]c1ccc(Br)cc12)c1ccccc1,-6.6,?,-1,?,·,?

# Whole records, looked up by structure. Order of values: D2 agonist, CtBP-E1A blk, D2 PAM, gsp agonist, gsp antag, Six1-Eya2 blk
# `O=C1c2ccccc2S(=O)(=O)c2cc(C(=O)N3CCC(N4CCCC4)CC3)ccc21` as listed: 1.3, -4, -10, -9%, 7%, -5
# `O=S(=O)(Nc1ccc(-c2ccc(N3CCOCC3)nn2)cc1)c1ccc(Cl)c(Cl)c1` as listed: -3.1, -4, -5, 19%[15.4 µM], 35µM*, -5
# `Cc1nnc(N2C(=O)c3cccc4cccc(c34)C2=O)s1` as listed: -0.3, -7, -7, 26%, -9%, 0
# `CC(Oc1ccc(Br)cc1)C(=O)NCc1ccccn1` (stereo not drawn) as listed: 2.2, -20, -7, 12%, 9%, -13
# `O=C(NCc1ccccc1)c1cccc(S(=O)(=O)NCc2ccccc2)c1` as listed: -3.7, -9, -5, -38%[inhibitor], 1%, 3

# Further records.
SMILES,D2 agonist,CtBP-E1A blk,D2 PAM,gsp agonist,gsp antag,Six1-Eya2 blk
CCN(c1ccc(OC)cc1)S(=O)(=O)c1ccc(-c2ccc(=O)[nH]n2)o1,2.0,·,-2,-43%[inhibitor],8%,15
CN1CCCC(OC(=O)COc2ccc(Br)cc2)C1 (stereo not drawn),-1.2,1,-23,8%,6%,13
COc1ccc(/C=C2\SC(=S)N(Cc3cccnc3)C2=O)cc1C,-1.7,-7,7,4%,2%,-3
CCOc1ccc(C(CC(=O)O)NC(=O)Cc2ccc(Cl)cc2)cc1 (stereo not drawn),1.7,4,-2,18%[15.4 µM],5%,9
CCOC(=O)C1=C(C)N(CCCC(=O)NCc2ccc3c(c2)OCO3)C(=O)NC1c1ccc(Br)cc1 (stereo not drawn),-2.4,2,-10,·,-5%,2
O=C(Nc1ccc2nc(-c3ccc(Br)o3)[nH]c2c1)c1ccco1,5.5,-14,14,11%,-19%,-10
O=C(Cn1cnc([N+](=O)[O-])n1)N/N=C/c1ccccc1O,4.4,-95*,15,-95%[inhibitor],3%,-92*
CCOC(=O)CN(c1ccccn1)S(=O)(=O)c1ccccc1,-0.8,8,2,-2%,11%,6
N#C/C(=C/c1ccc(-c2ccc(S(=O)(=O)N3CCOCC3)cc2)o1)C(=O)NC1CC1,5.7,?,-4,-34%[inhibitor],?,?
COc1ccccc1NC(=O)/C(C#N)=C/C=C/c1ccco1,-2.3,2,-11,13%,8%,-6
Cc1cccc(N(C(=O)Cc2cccs2)C(C(=O)NC2CCCC2)c2ccsc2)c1 (stereo not drawn),-0.8,17,-12,-51%[inhibitor],13%,5
O=C(NCc1ccco1)C1CC(=O)N(CCc2ccccc2)C1 (stereo not drawn),0.5,7,1,5%,2%,4
CC(=O)c1ccc(S(=O)(=O)N2CCN(c3ccnc4cc(Cl)ccc34)CC2)cc1,3.7,-4,-6,-86%[inhibitor],·,-21
